Six1-Eya2 blk = blocks human Six1 binding to Eya2. Q15475+O00167. AlphaScreen GST-Six1/His-Eya2 binding, biochemical; active compounds read low; control for the full effect not named in the record. activity change, % (test concentration not listed). 0.56% of 360,000 active; in the data active = activity change below about -65%; inconclusive = about -30% to -65%; inactive = above about -30%; note: % is set by controls: 0 for no effect and ±100 for the full control effect
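Six1/Eya2 binding was read as AlphaScreen signal after compounds were pinned into GST-Six1 plus His-tagged Eya2 (5X stock 250/500 nM) in pH 8.0 Tris/NaCl/TCEP buffer, beads added, then incubated 1 h, 37 C, dark.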
TRPML1 agonist = agonists of human TRPML1 channel; activation, % (concentration not given with the values); TRPML1-expressing cells, Ca2+ dye fluorescence, FDSS; host cell line not named in the record; reference of the full effect not given here; AID 624414; 0.12% of 410,000 active; Q9GZU1; in the data active = activation above about 50%; inconclusive = about 30% to 50%; inactive = below about 30%; note: 0% is about no effect; the text of the record puts the active cut at 80%
Target sequence (Q9GZU1 whole entry, looked up): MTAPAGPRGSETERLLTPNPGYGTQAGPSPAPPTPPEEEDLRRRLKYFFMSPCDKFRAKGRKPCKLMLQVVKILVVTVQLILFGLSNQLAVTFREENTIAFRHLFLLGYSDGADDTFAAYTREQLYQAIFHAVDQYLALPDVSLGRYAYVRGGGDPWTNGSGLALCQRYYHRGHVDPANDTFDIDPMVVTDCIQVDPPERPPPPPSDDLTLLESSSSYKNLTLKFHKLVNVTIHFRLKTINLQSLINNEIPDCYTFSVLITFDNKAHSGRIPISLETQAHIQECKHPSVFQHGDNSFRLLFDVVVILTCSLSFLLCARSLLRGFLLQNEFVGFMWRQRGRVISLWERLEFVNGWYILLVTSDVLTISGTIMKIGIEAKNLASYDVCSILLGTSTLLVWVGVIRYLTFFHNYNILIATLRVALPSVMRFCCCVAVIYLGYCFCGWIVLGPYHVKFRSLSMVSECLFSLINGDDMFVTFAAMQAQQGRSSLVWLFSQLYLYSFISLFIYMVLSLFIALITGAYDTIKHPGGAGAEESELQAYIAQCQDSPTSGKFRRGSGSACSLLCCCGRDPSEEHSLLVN
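Cells: TRPML1-DL, 1X Tet inducer, ~16 h at 37 degrees C/5% CO2. Dye: ABD Ca8 no-wash + quencher, 45-90 min RT. Read: 10 s baseline, compound add, 110 s agonist phase; 54-4 EC80 (4uM final), 110 s antagonist phase.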
TRPML1 blocker = human mucolipin-1 channel inhibition. TRPML1-inducible cells, Ca2+ dye fluorescence, FDSS; active compounds read low; inhibition of EC80 agonist-evoked calcium signal. activity change, negative = inhibition, % (concentration not given with the values). 0.02% of 390,000 active; in the data active means activity change below about -50%; inconclusive means about -30% to -50%; inactive means above about -30%;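 note: stimulus is agonist 54-4 at its EC80 concentration; % is set by controls: 0 for no effect and ±100 for the full control effect; the text of the record puts the active cut at -80%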
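TRPML1-DL cells, Tet-induced overnight (~16 h, 37 °C) at 1,500 cells/well, were loaded with Ca8 no-wash dye plus quencher for 45-90 min at room temperature. Compounds were pinned during FDSS kinetic reading; agonist 54-4 at EC80 (4 uM final) then added.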
D2 PAM = potentiates the human D2 dopamine receptor allosterically; potentiation, % (no concentration beside the values); DiscoveRx D2 beta-arrestin cells, luminescence, 90 min; 100% = 57 uM dopamine signal; 0.23% of 360,000 active; active = potentiation of 50% or more; inconclusive = 30% to 50%; inactive = 30% or less;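 note: compound concentration not given in the record; tested on top of an EC20 dose of dopamine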
Target sequence (P14416 whole entry, looked up): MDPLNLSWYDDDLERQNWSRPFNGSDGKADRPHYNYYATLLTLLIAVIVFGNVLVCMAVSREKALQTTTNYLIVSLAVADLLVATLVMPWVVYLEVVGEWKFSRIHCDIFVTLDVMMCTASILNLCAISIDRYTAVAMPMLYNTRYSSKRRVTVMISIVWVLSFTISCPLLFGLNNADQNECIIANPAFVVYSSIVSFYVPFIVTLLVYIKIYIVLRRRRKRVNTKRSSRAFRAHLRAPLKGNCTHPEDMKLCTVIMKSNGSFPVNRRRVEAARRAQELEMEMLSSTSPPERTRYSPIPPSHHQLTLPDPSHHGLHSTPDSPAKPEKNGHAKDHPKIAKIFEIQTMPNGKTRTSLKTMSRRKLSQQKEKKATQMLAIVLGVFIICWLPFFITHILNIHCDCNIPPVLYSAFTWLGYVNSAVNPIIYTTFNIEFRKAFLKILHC
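D2 cells co-treated with compound plus 50 nM dopamine (EC20) for 90 min at 37 deg C to detect potentiation. Beta-arrestin recruitment was read as enzyme-fragment luminescence after 1 h at ambient temperature. Full response was set by 57 uM dopamine.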
CtBP-E1A inh = CtBP/E1A binding inhibition; 0.49% of 340,000 active; AlphaScreen GST-E1A/His-CtBP binding, 1536-well; active compounds read low; control for the full effect not named in the record; activity change, % (test concentration not listed); in the data active means activity change below about -65%; inconclusive means about -30% to -65%; inactive means above about -30%; note: % is set by controls: 0 for no effect and ±100 for the full control effect
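AlphaScreen with 125 nM GST-E1A and 125 nM His-CtBP (5X stocks) in Tris pH 8.0, 300 mM NaCl, BSA, Tween 20, TCEP. Compounds preincubated 2 h at 37 deg C, then glutathione donor/nickel acceptor beads added for 1 h at 37 deg C in dark.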
TRPV1 PAM = enhances activation of the human vanilloid receptor TRPV1 | potentiation, % at 8.33 µM | TRPV1-expressing cells, Fluo-8 calcium influx, capsaicin EC20 potentiation; host cell line not named in the record; control for the full effect not named in the record | 0.02% of 320,000 active; active means potentiation above 80%; inconclusive means 30% to 80%; inactive means below 30%; note: 0% is about no effect
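Fluo-8 calcium influx in TRPV1-expressing cells, kinetic read (ex 480/em 520 nm). Compound added and read 3 min for agonist activity, followed by capsaicin at EC20 final and 2 min further read for enhancement.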
Active calls of the source: *; ? = inconclusive; / = not tested or not shown.

Results follow in this order: TRPML1 agonist	CtBP-E1A inh	Six1-Eya2 blk	D2 PAM	TRPV1 PAM	TRPML1 blocker
#1 CC(C)(C)OC(=O)N1CCOCCOCCNCCOCCOCC1
  -0.1	6	-2	-6	-10	39
#2 Nc1c(C(=O)Nc2ccc(F)cc2)sc2nc(-c3ccco3)ccc12
  8.7	-3	4	0	12	-11
#3 O=C(NCCCO)c1ccc(CSc2nc3ccccc3[nH]2)cc1
  -1.1	2	4	3	4	-4
#4 C=CCn1c(CNc2ccccc2)nnc1SCC(=O)N/N=C/c1ccc(O)cc1O
  1.2	-81*	-88*	-2	6	-14
#5 CC1(C)CC(=O)C=C(NC2=CC3OC(c4ccccc4)OCC3OC2=O)C1 (stereo not drawn)
  -0.3	2	-23	-29	1	-11
#6 COC(=O)C1=C(C)NC(=O)/C1=C/c1ccc(CNS(=O)(=O)c2ccc(C)cc2)o1
  0.3	-2	-8	-6	-9	27
#7 COc1ccc(C(=O)Nc2nc3ccccc3[nH]2)cc1OC
  0.2	-6	-10	10	-1	19
#8 O=C1Nc2ccc(S(=O)(=O)NCCCO)c3cccc1c23
  -0.3	/	-5	-2	4	-3
#9 COc1ccc(CN(Cc2cccnc2)S(=O)(=O)c2ccc(-n3cnnn3)c(C)c2)cc1OC
  1.3	-1	-1	-2	-12	9
#10 C=CCOc1cccc(/C=C2\C(=O)N(Cc3ccc(C)cc3)C(C)=C2C(=O)OC)c1
  0.3	7	-3	-3	17	0
#11 COc1ccc(C(=O)N(Cc2nc(-c3ccc(C)cc3)no2)C(C)C)cc1OC
  1.5	-24	1	-16	?	-3
#12 CC1(C)Cc2c(cnn2-c2ccc(F)cc2)C(NC(=O)C2=CC(=O)CC(C)(C)O2)C1 (stereo not drawn)
  -0.2	1	1	-6	/	6
#13 CCOC(=O)c1ccc(NC(=O)c2nc[nH]c2C(=O)N[C@@H](C)C(=O)OC(C)(C)C)cc1
  -0.8	5	1	-1	13	0
#14 CC(Sc1nncn1C)C(=O)Nc1ccc(N2CCCCC2)cc1 (stereo not drawn)
  -0.5	3	-1	-2	0	-8
#15 COc1ccc(CC(=O)OCc2cc(=O)n3cc(Br)ccc3n2)cc1OC
  0.3	-1	0	1	-7	-6
#16 Cc1nn(-c2ccccc2)c(C)c1S(=O)(=O)O
  0.3	2	6	-5	-9	-1
#17 O=C(Nc1c[nH]c(=O)[nH]c1=O)c1cc([N+](=O)[O-])cc([N+](=O)[O-])c1
  0.1	/	-2	-7	2	3
#18 COc1cc(C(C)=O)ccc1OCCCOc1cccc2cccnc12
  0.2	-23	-3	5	?	-22
#19 O=C(CC1C[C@H](C(=O)N2CCCCC2)[C@@]2(CCc3ccccc3)c3[nH]c4ccccc4c3CCN2C1=O)NCc1ccco1 (stereo partly drawn)
  -0.8	0	1	/	/	22
#20 CCN(Cc1ccncc1)C(=O)C1CCC(=O)N(Cc2ccc(Cl)cc2)C1 (stereo not drawn)
  -0.4	5	-1	12	2	5
#21 Cn1c2c(c3ccccc31)CCN(CCCCN1CCN(c3ccccc3)CC1)C2=O
  2.1	-21	?	2	/	0
#22 CN(C1CCS(=O)(=O)C1)S(=O)(=O)c1cccc2nsnc12 (stereo not drawn)
  -0.8	-1	6	-8	2	-20
#23 COc1cccc(CN(C(=O)c2ccco2)C2CCS(=O)(=O)C2)c1 (stereo not drawn)
  0.6	-6	5	-6	-1	-14
#24 COc1ccc(-c2oc3ccccc3c2C(=O)OCc2ccc(O)cc2)cc1
  0.6	37	19	-5	10	-7
#25 CC(C)CNC(=S)NC(=O)c1ccc(Cl)cc1Cl
  2.0	4	33	0	0	-10
#26 CCOC(=O)C1CCCN(C(=S)Nc2ccc(C)cc2C)C1 (stereo not drawn)
  0.0	-6	1	-7	-6	-10
#27 C=C(C)CC1N(c2cccc(OC)c2)C(=O)C2C(C(=O)O)C3C=CC21O3 (stereo not drawn)
  -0.1	-2	8	-1	3	6
#28 Cc1ccc2c(c1)N(CC(=O)NCCc1ccccc1)C(=O)c1cccnc1O2
  0.6	7	8	-2	19	-12
#29 Cc1ccc(C2=NS(=O)(=O)N(C)C(C(=O)N3CCOCC3)=C2)cc1
  0.2	3	-1	-4	-18	-5
#30 CCNc1nc(-c2sc(NC(=O)C(C)(C)C)nc2C)c(-n2cc(-c3ccccc3)nn2)s1
  0.2	0	-6	/	/	/

An excerpt of these results, field by field.
29: Cc1ccc(C2=NS(=O)(=O)N(C)C(C(=O)N3CCOCC3)=C2)cc1
  TRPML1 agonist = 0.2
  CtBP-E1A inh = 3
  Six1-Eya2 blk = -1
  D2 PAM = -4
  TRPV1 PAM = -18
  TRPML1 blocker = -5
1: CC(C)(C)OC(=O)N1CCOCCOCCNCCOCCOCC1
  TRPML1 agonist = -0.1
  CtBP-E1A inh = 6
  Six1-Eya2 blk = -2
  D2 PAM = -6
  TRPV1 PAM = -10
  TRPML1 blocker = 39
26: CCOC(=O)C1CCCN(C(=S)Nc2ccc(C)cc2C)C1 (stereo not drawn)
  TRPML1 agonist = 0.0
  CtBP-E1A inh = -6
  Six1-Eya2 blk = 1
  D2 PAM = -7
  TRPV1 PAM = -6
  TRPML1 blocker = -10

Later entries:
Results follow in this order: TRPML1 agonist	CtBP-E1A inh	Six1-Eya2 blk	D2 PAM	TRPV1 PAM	TRPML1 blocker
#31 CC1(C(=O)NS(=O)(=O)C2CC2)CCCN(C(=O)COc2ccccc2)C1 (stereo not drawn)
  -0.4	7	3	1	/	/
#32 COc1ccc(/C=C/C2=CC(C)(C)NC(=S)N2)cc1OC
  1.2	-28	-12	-4	12	10
#33 CCOC(=O)c1cc2occc2n1CCCN1C(=O)c2ccccc2C1=O
  2.3	8	-10	12	-13	7
#34 CCc1ccccc1NC(=O)CNC(=O)CNC(=O)Cc1ccccc1
  -0.3	7	12	14	-1	-11
#35 COc1cc2c(cc1OC)C1=NC(=O)CN1C(SCc1ccc(C)cc1)=N2
  -0.1	-2	-12	-7	/	-1
#36 Cc1ccc(C(=O)NCCC(=O)N2CCC3(CC2)NCCc2[nH]cnc23)cc1
  -0.2	3	-3	-2	11	-1
#37 Cc1cc(C)nc(SCC(=O)NNC(=O)c2cccs2)n1
  -0.1	11	-6	-6	-4	-20
#38 CN(C)C(=O)c1ccc(-c2nnc(NCc3ccccc3)c3ccccc23)cc1
  -0.8	-16	-4	-18	-2	4
#39 COc1ccc(NC(=O)c2sc(=S)[nH]c2N)cc1
  -0.4	-2	-3	-10	0	-1
#40 O=C(O)C(c1cccs1)C1(O)CCCCC1 (stereo not drawn)
  -0.3	7	1	2	/	25
#41 Cc1ccc(NC(=O)c2ccc(S(=O)(=O)N3CCOCC3)cc2)nc1
  -0.6	-1	-2	-1	-13	2
#42 Cn1nnnc1SCCNC(=O)C1CCC(=O)N(Cc2cccc(C(F)(F)F)c2)C1 (stereo not drawn)
  -0.8	-7	-1	-5	/	-9
#43 CCOc1ccc(Oc2ccc(NC(=O)CSc3nncn3C)cc2)cc1
  -0.7	-20	1	-13	-13	-16
#44 O=C(c1ccc([N+](=O)[O-])cc1)N1CCC(Cc2ccccc2)CC1
  -0.6	-10	-7	4	-4	15
#45 CC(Sc1nnc(-c2ccccc2F)n1N)C(=O)NCC1CCCO1 (stereo not drawn)
  -1.1	-1	5	-11	8	7
#46 CCOc1ccc(S(=O)(=O)N2CCCCC2)cc1NC(=O)Cc1cccc(C(F)(F)F)c1
  1.0	4	4	-5	11	-11
#47 COc1ccc(-c2cc3ccccc3n2CC(O)CN2CCC(C)CC2)cc1 (stereo not drawn)
  0.9	-9	-11	-12	-3	-8
#48 O=C(O)c1ccccc1Nc1ccc(OC(F)F)cc1
  0.0	3	0	7	8	36
#49 CCn1c2ccccc2c2cc(NC(=O)CNCc3ccccc3OC)ccc21
  0.7	-10	-13	-15	-7	-7
#50 C=CCC(=O)N1CCC(n2nccc2NC(=O)CCOc2ccccc2)CC1
  -0.2	7	0	-3	3	-14
#51 N#Cc1ccc(NC(=O)C2=COCCO2)cc1
  -0.1	/	9	-4	-15	20
#52 CN1CCN(CCC(=O)N2c3ccccc3Sc3ccc(Cl)cc32)CC1
  1.3	-12	-1	-39	7	-8
#53 C/C(=N\Nc1nc(N2CCOCC2)nc(N2CCOCC2)n1)c1cccs1
  -0.6	19	10	-2	1	-3
#54 O=C(Cn1c(O)c(/C=C2\C=Nc3ccccc32)sc1=O)N1CCOCC1
  0.5	/	-3	-6	0	4
#55 C=CCNC(=O)c1cccn1-c1ccsc1C(=O)OC
  0.4	0	-2	7	8	25
#56 Cc1ccc(N(CC(=O)NCc2ccccc2)C(=O)c2csnn2)cc1
  -0.3	0	6	-3	8	-24
#57 O=C(COC(=O)CC(c1ccccc1)c1ccccc1)NCc1ccc(Cl)cc1
  2.8	6	10	10	-41	-2
#58 CC(=O)Nc1ccc(C(=O)N/C(=C/c2ccccc2)C(=O)N2CCCCC2)cc1
  -0.6	3	2	-2	4	0
#59 O=C(CNc1ccccc1)N/N=C/c1cc([N+](=O)[O-])ccc1N1CCCC1
  0.4	-3	-8	-35	-13	-2
#60 CC(C)Sc1nc(C(F)(F)F)cc(=O)n1-c1ccccc1
  1.5	11	5	10	-5	15

Taken from above, three compounds:
Results follow in this order: TRPML1 agonist	CtBP-E1A inh	Six1-Eya2 blk	D2 PAM	TRPV1 PAM	TRPML1 blocker
#31 CC1(C(=O)NS(=O)(=O)C2CC2)CCCN(C(=O)COc2ccccc2)C1 (stereo not drawn)
  -0.4	7	3	1	/	/
#32 COc1ccc(/C=C/C2=CC(C)(C)NC(=S)N2)cc1OC
  1.2	-28	-12	-4	12	10
#33 CCOC(=O)c1cc2occc2n1CCCN1C(=O)c2ccccc2C1=O
  2.3	8	-10	12	-13	7

Among those listed so far, 4 have two or more sulfur atoms:
Results follow in this order: TRPML1 agonist	CtBP-E1A inh	Six1-Eya2 blk	D2 PAM	TRPV1 PAM	TRPML1 blocker
#22 CN(C1CCS(=O)(=O)C1)S(=O)(=O)c1cccc2nsnc12 (stereo not drawn)
  -0.8	-1	6	-8	2	-20
#30 CCNc1nc(-c2sc(NC(=O)C(C)(C)C)nc2C)c(-n2cc(-c3ccccc3)nn2)s1
  0.2	0	-6	/	/	/
#37 Cc1cc(C)nc(SCC(=O)NNC(=O)c2cccs2)n1
  -0.1	11	-6	-6	-4	-20
#39 COc1ccc(NC(=O)c2sc(=S)[nH]c2N)cc1
  -0.4	-2	-3	-10	0	-1
